Bioassay records from PubChem.
NPYLR7 ag: activates Aedes aegypti NPYLR7 receptor; HEK293T NPYLR7/Galpha15, GCaMP6s calcium fluorescence; activation, % at 10 µM; hit rate 0.15% among 270,000; in the data active = activation above about 40%;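 also: 0% = vehicle and 100% = reference agonist at the receptor; some compounds past the cut are filed as inactive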
NPYLR7 ag max-min: recorded beside NPYLR7 ag, whose call it bears; activation, %; measured here: Max-Min RFU normalised activation; some inactives read as strong as hits;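 span of the calcium signal over five minutes; 0% = vehicle and 100% = native peptide agonist; compound fluorescence can raise it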
The depositor's hits bear a star. The list is partial; count on the stated rates, not on these rows.

SMILES | NPYLR7 ag | NPYLR7 ag max-min
O[C@H]1CN(c2nccc(C3CCCC3)n2)C[C@@H]1N1CCCCC1 | 5 | 4
O=C(NNS(=O)(=O)c1cccc(Br)c1)c1ccco1 | 9 | 8
CC(C)(C(=O)N1CCCC1c1nnc2c(C(F)(F)F)cccn12)c1ccc(Cl)cc1 (stereo not given) | -13 | -17
COc1ccc(-n2c(-c3ccc(F)cc3)n[nH]c2=S)cc1 | -9 | -4
CCNC(=O)Nc1ccc(N(C)C)c(CN(Cc2ccco2)C(=O)c2cccs2)c1 | 0 | 10
Cc1ccc(Cn2c(Sc3nccc(C)n3)nc3c2c(=O)[nH]c(=O)n3C)cc1 | 20 | 9
CC(C)(C)C(=O)COC(=O)c1ccc([N+](=O)[O-])o1 | -1 | -1
Cc1cc(NC(=O)Cc2ccccc2)n(-c2nc(-c3cccs3)cs2)n1 | -10 | -18
N#Cc1cc2cc3ccccc3nc2n2c(=O)c3ccccc3nc12 | 15 | 14
O=C1CSc2nc(-c3cnccn3)nn21 | 9 | 8
COc1ccc(C(=O)N2CCc3ccccc3C2c2ccccc2Cl)cc1 (stereo not given) | 30 | 21
CCn1cc2ccc(NC(=O)N(C)Cc3ccc(OC)c(F)c3)cc2n1 | -7 | -8
CC(C)CCCC1CN(C(=O)CCN2CCCCCC2=O)CCO1 (stereo not given) | 5 | 1
C=C(C)Cn1c(N2CCc3ccccc3C2)nc2c1c(=O)[nH]c(=O)n2C | 4 | -1
O=C(Nc1cccc(F)c1)N1CCN(C(C(=O)N2CCOCC2)C2CCCC2)CC1 (stereo not given) | -2 | -2
Cc1ccc(-n2nc(-c3ccccc3Cl)cc2C(=O)N2CCC(Cc3ccccc3)CC2)cc1 | 0 | 11
CCc1ccc(NC(=O)Cn2cnc([N+](=O)[O-])n2)cc1 | -11 | -20
CCc1cccc(CC)c1NC(=O)CN1CC(C)OC(C)C1 (stereo not given) | 9 | 7
O=C(C1CCCN(c2nc3c(-c4ccccc4)csc3c(=O)[nH]2)C1)N1CCOCC1 (stereo not given) | -11 | -13
COc1cccc(OCc2ccccc2)c1C(=O)NCCc1ccc(F)cc1 | -13 | -20
C/C(=C/C(=O)N(C)C1CCC(C)CC1)c1ccccc1 (stereo not given) | 2 | 3
c1ccc(Oc2ccccc2-c2cc(N3CCN(Cc4cccnc4)CC3)n3nccc3n2)cc1 | -6 | -9
O=C(/C=C/c1ccccc1)Nc1cccc(C2SCC(=O)N2c2ccc(C(F)(F)F)cc2)c1 (stereo not given) | 2 | 1
CN(C)C(=O)C1CN(C(=O)c2cccc(Oc3ccccc3)c2)c2ccccc2O1 (stereo not given) | -8 | -9
O=c1[nH]c(SCc2csc(-c3ccc(C(F)(F)F)cc3)n2)nc2ccccc12 | 7 | 6
CCCOC(=O)C1=C(C)N(C)C(=O)NC1c1cc(Br)c(O)c(OC)c1 (stereo not given) | 0 | -2
Fc1ccc(F)c(COC2CCCNC2)c1 (stereo not given) | 23 | 31
COC(=O)c1c(-c2cccs2)csc1N | 2 | 2
O=C1CN(C(=O)COc2ccc(-c3ccccc3)cc2Cl)CCN1 | 11 | 8
O=[N+]([O-])c1c(Sc2nnnn2-c2ccccc2)nc2ccccn12 | -5 | -1
CCCSc1ncccc1C(=O)NCCOc1ccccc1 | -4 | -12
Cc1cc(C)nc(SCc2cc(=O)c(OC(=O)c3cc(Br)ccc3Cl)co2)n1 | -11 | -7
CCCc1[nH]n(-c2ccc(Cl)cc2)c(=O)c1C1=C([n+]2cc(C)cc(C)c2)C(=O)N(CC(C)C)C1=O | 8 | 10
CC(C)CN(CC(=O)N(CCc1c[nH]c2ccccc12)Cc1ccc(F)cc1)C(=O)C(C)(C)CCl | 0 | 7
O=C(C=Cc1nc2ccccc2o1)Nc1cc(S(=O)(=O)N2CCOCC2)ccc1N1CCOCC1 | 2 | -1
COc1ccc2c(c1)C1CC(C)(O2)N(C)C(=O)C1S(=O)(=O)c1ccc(C)c(C)c1 (stereo not given) | 16 | 19
COc1ccccc1-c1nnc2ccc(OCCNS(=O)(=O)c3ccc(C)cc3)nn12 | 7 | 5
O=C(c1ccc2c3c(cccc13)CC2)C1CCCN(C(=O)c2ccc3c(c2)OCCO3)C1 (stereo not given) | 2 | -1
NS(=O)(=O)c1ccc(-n2ncc(Cl)c(Cl)c2=O)cc1 | 9 | 9
CC1(C#CC(=O)O)CC1(Cl)Cl (stereo not given) | 6 | 3
COc1ccc(/C=C2/C(=O)NC(=O)N(C(C)(C)C)C2=O)cc1 | -16 | -22
COc1cccc(CCNC(=O)c2ccc(NC(C)C)nc2)c1 | 2 | -1
Cc1cc(S(=O)(=O)Nc2cc(-c3ccco3)nn2C2CCS(=O)(=O)C2)ccc1F (stereo not given) | -2 | -5
O=C(c1cc(=O)c(OCc2ccccc2)c[nH]1)N1CCN(c2cccc(C(F)(F)F)c2)CC1 | 0 | -5
COc1cc(C2SCCN2C(=O)Nc2c(C(C)C)cccc2C(C)C)ccc1OCc1ccccc1 (stereo not given) | 1 | 7
COc1ccccc1CN(CC(=O)NC(=O)NC(C)(C)C)Cc1cccs1 | 3 | 0
CCOC(=O)c1ccccc1N1C(=O)/C(=C\c2ccncc2)N(C)C1=S | -4 | 8
CC1C(=O)N(c2ccc3c(c2)CCC3)CCN1C(=O)c1cccs1 (stereo not given) | 1 | 5
Cc1ccc(C=CC2=Cc3c(sc(NC(=O)CCl)c3C#N)C(C)(C)C2)o1 | -6 | -12
COCC(=O)N1CCCC(N2CCN(c3ccccc3OC)CC2)C1 (stereo not given) | 2 | 9
COc1ccc(C(=O)N2CCN(c3nc(C)nc(C)c3Cc3cccc(C)c3)CC2)cc1 | 5 | 12
COc1cncc(N2CC3ON=C(c4c(F)cccc4Cl)C3C2)c1 (stereo not given) | 7 | 5
O=C(c1ccc2c(c1)OCO2)N1CCC(n2cc(C3CCCC3)nn2)CC1 | -3 | 9
CCOc1ccc(N=c2sc(C(C)=O)c(C)n2CCO)cc1 | -7 | -12
Cc1cccc(C(=O)NC(C)c2cnn(-c3ccccn3)c2C)n1 (stereo not given) | 0 | 1
Cc1cc(C(C)(C)C)cc(C)c1CN1C(=O)C(=O)N(C2CC2)C1=O | -3 | -3
COc1cc(C=CC(=O)c2ccc(F)cc2)ccc1OC(F)F | -9 | -7
Cc1cnn(CC2CC2)c1NC(=O)C1CC1c1ccccc1Cl (stereo not given) | -4 | -5
O=C(NCCF)c1ccc(-c2cc(-c3ccc(Cl)cc3)[nH]n2)cc1 | 23 | 17
CC(=O)NCCc1csc2nc(-c3cccs3)nn12 | -6 | -5
Continuation.
SMILES | NPYLR7 ag | NPYLR7 ag max-min
COc1cccc(C(CN2CCN(C(=O)c3cc(C)nc(Cl)c3)CC2)OCc2ccc(C#N)cc2)c1 (stereo not given) | -1 | -2
CCC(=O)N1CCN(c2ncccc2C(=O)NCc2ccc3c(c2)OCO3)CC1 | 3 | 5
CC(C)(C)C1CCc2sc(C(=O)N3CCNC(=O)C3)cc2C1 (stereo not given) | 6 | 3
CCOC(=O)C1(CCc2ccccc2)CCCN(C(=O)c2ccc3[nH]ccc3c2)C1 (stereo not given) | 11 | 1
COCCc1nc2ccc(C(=O)N3CCc4c([nH]c5ccccc45)C3C(C)C)cc2o1 (stereo not given) | 23 | 9
COc1cc(C(=O)NC(=S)Nc2cc(C)c(C)cc2O)cc(OC)c1OC | 2 | 0
Cc1cc(N2C[C@H]3C[C@H](O)[C@H](O)C[C@H]3C2)nc(-c2ccccc2)n1 | -3 | 0
O=C1/C(=C/c2ccc([N+](=O)[O-])cc2)C=C(c2ccccc2)N1c1ccc(Nc2ccccc2)cc1 | 11 | 20
O=C(Nc1ccc2c(c1)OCO2)c1cc(C2CCCCN2C(=O)OCCF)on1 (stereo not given) | 2 | -1
O=c1oc2ccc3ccccc3c2cc1-c1csc(Nc2ccc(Oc3ccc(Cl)cc3)cc2)n1 | -3 | -7
Cc1nc(NCCNC(=O)Nc2cccc(Cl)c2C)cc(-n2ccnc2C)n1 | -16 | -23
C=CCc1cc(C)c(OCCCCN2CCN(C)CC2)c(C)c1 | -10 | -18
COC(=O)c1ccc(C(=O)N2CCN(c3ccc(NC(=O)c4ccc(C)cc4)cn3)CC2)cc1 | 3 | -3
CCCCOc1ccc(C(=O)Nc2c(-c3ccc(OC)cc3)nc3ccccn23)cc1 | -1 | 7
CCOCCOC(=O)C1=C(C)N(C)C(=O)NC1c1ccc(OCc2ccccc2)cc1 (stereo not given) | -4 | -6
CC(/C=C1\N=C(c2cc(F)c(F)cc2Cl)OC1=O)=C\c1ccccc1 | -10 | -12
COc1cccc(C(CN2CCN(S(=O)(=O)c3ccc(OC(F)F)cc3)CC2)OCc2ccc(C#N)cc2)c1 (stereo not given) | 0 | 10
COCCC(C)NS(=O)(=O)c1cc(Cl)cnc1N (stereo not given) | -7 | -9
CCc1c(C)nc(N)nc1N1N=C1SC(C(C)=O)=C(C)O | -1 | -1
COc1cccc(CN2CCCC(NCC3=Cc4cccc(OC)c4OC3)C2)c1 (stereo not given) | 13 | 5
C=CCn1nnnc1SCc1cccc(CSc2nnnn2CC=C)c1 | -2 | -5
Cn1cc(-c2nccc(CCC(F)(F)F)n2)cn1 | 2 | 1
Cc1ccc(N2C(=O)/C(=C/c3cc(Cl)c(OCC(=O)O)c(Cl)c3)C(=O)NC2=S)cc1 | -1 | -13
Cc1ccc(-n2nc3c(c2NC(=O)c2ccc(S(=O)(=O)N(C)C)cc2)CSC3)cc1C | -1 | -1
Cc1ccc2c(c1)CCN1C(=O)CN(C(=O)Nc3cc(F)cc4c3OCOC4)CC21 (stereo not given) | 20 | 10
COCc1c(Br)c(C)nc(OCC(=O)N/N=C\c2ccc(OCc3ccc([N+](=O)[O-])cc3)c(OC)c2)c1C#N | 0 | -1
Cc1ccc(CNC(=O)c2ccc([N+](=O)[O-])s2)cc1 | -3 | 4
NS(=O)(=O)N1CCN(C(c2ccccc2)c2ccccc2)CC1 | -3 | -3
N#Cc1cccc(-c2cnc(CN)[nH]2)c1 | 2 | 2
Cc1ccccc1S(=O)(=O)NC(=O)C1(C)CCN1C(=O)CC(c1ccccc1)c1ccccc1 (stereo not given) | 0 | 0
COc1ncccc1-c1ccc(NC2CCCC2)nn1 | -6 | -7
O=C(c1cnc(-c2ccco2)s1)N1CCCC(C(F)(F)F)C1 (stereo not given) | -7 | -9
COCCc1noc(-c2ccc(-c3cccc(C(C)OC)c3)nc2)n1 (stereo not given) | 3 | -3
Cc1ccnc(N2CCN([C@@H]3c4ccccc4C4(CCNCC4)[C@H]3O)CC2)c1 | 13 | 1
CSc1nn(CC(=O)Nc2ccc(C(C)C)cc2)c(N)c1-c1nc(-c2ccc3c(c2)OCO3)no1 | -16 | -22
CNC(=O)Cc1nc(-c2ccncc2)n[nH]1 | 3 | 4
CN1CC=C(CN(Cc2ccc3c(c2)OCO3)C(=O)c2cccs2)CC1 | 0 | -4
CC(CCCC(C)(C)O)Nc1ccc(-c2nccn2C)nn1 (stereo not given) | -5 | -6
CC(C)(C)OC(=O)N1CCN(c2ccc(CN)cc2F)CC1 | 2 | -1
S=c1[nH]n(-c2ccccc2)c(=S)s1 | 5 | 2
CCN(CC)C(=O)c1sc(NC(=O)c2cc3ccccc3c(=O)o2)c(C#N)c1C | 2 | 0
O=C(CSc1nc2ccccc2o1)NCc1n[nH]c(=O)c2ccccc12 | -5 | -11
NC(=O)COc1cccc(CN2CCOC3(CNCCOC3)C2)c1 (stereo not given) | -3 | -4
